Assay outcomes as filed in PubChem.
Calb biofilm kill: clotrimazole potentiators killing C. albicans biofilm, primary screen, 4-compound mixtures | C. albicans biofilm persisters + clotrimazole, fluorescence viability; primary screen in compound mixtures of four per well | inhibition, % at 7.6 µM | hit rate 0.02% among 120,000;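 active means inhibition above 30.3% in the primary screen of four-compound pools, then above 30% when the compound was retested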;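 further: compounds exposed to preformed 24 h biofilms for 48 h; the number belongs to the whole pool; some results filed as inactive read as strong as hits; inactives centre near 12; 0% = biofilm with clotrimazole alone and 100% = kill control; retested singly at about 60 µM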
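Test system: C. albicans biofilms. Buffer or medium: RPMI/MOPS medium, pH 7.0. Timing: 48 h compound exposure at 37 °C. Technique: Alamar Blue fluorescence. Evaluation: percent inhibition of biofilm viability.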
The depositor's hits bear a star.

nr	SMILES	Calb biofilm kill
1	Cc1cccc(C2=N/C(=C/c3cccs3)C(=O)O2)c1	15
2	Cc1ccc2[nH]c(C)cc(=S)c2c1	3
3	COc1ccc(CCN2C(=O)C3CC=C(C)CC3C2=O)cc1OC (configuration not stated)	12
4	CCS(=O)(=O)c1c(S(=O)(=O)CC)c2ccccn2c1C(N)=O	6
5	CN1CCN(NC(=O)CC(C)(C)C)CC1	-13
6	COc1ccc(C(C(=O)NC2CCCCC2)N(C(=O)CCl)c2ccccc2Cl)cc1 (configuration not stated)	21
7	O=S(=O)(NCc1ccccc1)NCc1cccc(C(F)(F)F)c1	0
8	O=[N+]([O-])c1ccc(O)c(C2=NNC(c3ccccc3F)C2)c1 (configuration not stated)	29
9	CC(=O)c1cccc(NC(=S)NC(=O)c2cccc(Cl)c2)c1	4
10	Cc1ccccc1NC(=S)N(CCCN1CCOCC1)Cc1cccnc1	4
11	Clc1ccc(Cl)c(OCCCCNCc2ccccc2)c1	12
12	CCOC(=O)C1CCCN(CCC(=O)Nc2ccc(C)c(C)c2)C1 (configuration not stated)	16
13	NC(=O)COC(=O)c1ccccc1OCc1ccccc1Cl	10
14	CCn1c(CN2c3ccccc3Sc3ccccc32)n[nH]c1=S	6
15	O=C(N/N=C/c1ccccc1[N+](=O)[O-])C(=O)N1CCCC1	5
16	O=C(N/N=C/C=C\c1ccco1)c1ccccn1	19
17	COc1ccc(CC(=O)N/N=C(\C)CC(=O)NCc2ccco2)cc1OC	24
18	COc1ccc2cc(CCl)c(Cl)nc2c1	9
19	Cc1csc(NC(=O)CSc2nncc(=O)n2N)n1	5
20	Cc1ccc(NC(=O)CN2C(=O)N/C(=C/c3cccn3-c3ccc(C(=O)O)cc3)C2=O)cc1	9
21	COC(=O)c1sc(N)c(C(=O)OC)c1COC(=O)CCNS(=O)(=O)c1ccc(C)cc1	12
22	COC1OC(COC(=O)CNC(=O)OC(C)(C)C)C(O)C(O)C1O (configuration not stated)	10
23	CN(C)/C=C(\C(=O)c1ccccc1)c1nnnn1-c1ccc(F)cc1	12
24	O=C(CNC1CC1)Nc1cc(C(F)(F)F)ccc1Cl	24
25	C#CC[N+]1(CC#Cc2cccc(C)c2)CCCCC1	21

A draw from above in order of length of the SMILES, low to high:
nr	SMILES	Calb biofilm kill
3	COc1ccc(CCN2C(=O)C3CC=C(C)CC3C2=O)cc1OC (configuration not stated)	12
22	COC1OC(COC(=O)CNC(=O)OC(C)(C)C)C(O)C(O)C1O (configuration not stated)	10
23	CN(C)/C=C(\C(=O)c1ccccc1)c1nnnn1-c1ccc(F)cc1	12

Remaining list, next part.
nr	SMILES	Calb biofilm kill
26	Cc1ccc(S(=O)(=O)N(CC(=O)N2CCc3ccccc3C2)c2ccc(Cl)c(Cl)c2)cc1	19
27	CC1CCc2nc(/C(C#N)=C/c3cccnc3)sc2C1 (configuration not stated)	20
28	O=c1oc2ccccc2c(Cl)c1CN1CCCCC1	9
29	CC(C)(CNC(=S)NCCc1ccccc1)CNC(=S)NCCc1ccccc1	-5
30	Cc1cccc(NC(=O)Cn2cnc3c(oc4ccccc43)c2=O)c1	9
31	NC(=O)[C@@H]1CC2(CC(c3cccc(NC(=O)COc4ccc(Cl)cc4)c3)=NO2)CN1C(=O)COc1ccc(Cl)cc1 (some centres not stated)	6
32	Cc1ccc(S(=O)(=O)N/N=C/c2cccc([N+](=O)[O-])c2)cc1	12
33	O=C(Nc1ccc2c(c1)OCCO2)N1CCOCC1	-2
34	COCCOC(=O)C1=C(C)N=C2SCCC(=O)N2C1c1cccs1 (configuration not stated)	8
35	Cc1ccc(/C=N\NC(=O)c2ccc(Cn3cc(Br)c([N+](=O)[O-])n3)o2)o1	8
36	O=C(CN1CCCCC1)NNc1nc(-c2ccccc2)c2cc(Br)ccc2n1	15
37	COc1ccc(NC(C)(C)c2nnnn2-c2c(C)cccc2C)cc1	7
38	CCOCCCNC(=O)C(c1ccc(OC)cc1)N(Cc1ccc2c(c1)OCO2)C(=O)c1cnccn1 (configuration not stated)	18
39	O=C(Nc1ccc2oc(-c3cccnc3)nc2c1)c1ccc([N+](=O)[O-])o1	12
40	Cc1ccc(NC(=O)CS(=O)(=O)c2cn(C)c3ccccc23)c(C)c1	26
41	COc1ccc(CNC(=O)CSc2nnc3c(Cl)cc(C(F)(F)F)cn23)cc1OC	17
42	Cc1ccc(N2C(=O)[C@@H]3C(C(=O)CCN4C(=O)c5ccccc5C4=O)=NN[C@@H]3C2=O)cc1	8
43	Cc1ccc2nc(NC(=O)c3ccc(N4C(=O)CCC4=O)cc3)sc2c1	24
44	COc1ccccc1Nc1nc(-c2cccc([N+](=O)[O-])c2)cs1	20
45	COc1ccccc1-c1coc2cc(OC(=O)/C=C/c3ccccc3)ccc2c1=O	14
46	C=CCc1cccc2cc(C(=O)Nc3ccccc3C(=O)O)c(=O)oc12	3
47	CN(CC(=O)N1CCN(c2ccccn2)CC1)S(=O)(=O)c1cccc2nsnc12	19
48	Cc1ccc(N(CC(=O)NCC2CCCO2)C(=O)CCC(=O)Nc2ccccn2)cc1 (configuration not stated)	23
49	Cc1cc(C)c(S(=O)(=O)NCCCn2ccnc2)c(C)c1	-15
50	COc1ccc(C(=O)N(c2ccccn2)C2CCCCC2)c(OC)c1	14

Reprinted at random: 2 records from the list.
nr	SMILES	Calb biofilm kill
12	CCOC(=O)C1CCCN(CCC(=O)Nc2ccc(C)c(C)c2)C1 (configuration not stated)	16
28	O=c1oc2ccccc2c(Cl)c1CN1CCCCC1	9

Next part.
nr	SMILES	Calb biofilm kill
51	CCCCC(=O)Nc1ccccc1C#N	21
52	Cc1ccc(S(=O)(=O)N2CCOCC2)c(C)c1NS(C)(=O)=O	19
53	CN(c1ccccc1C(=O)N1CCN(c2ccccc2)CC1)S(C)(=O)=O	7
54	O=C(N/N=C/C=C\c1ccco1)c1cccs1	2
55	O=C1/C(=C/c2ccccn2)SC(=S)N1N1CCOCC1	20
56	COc1cccc(C(=O)Nc2nnc(-c3ccc(Cl)cc3)o2)c1	10
57	c1ccc(COc2ccc(OCCN3CCCC3)cc2)cc1	14
58	CC(C)NC(=O)NC(=O)COC(=O)/C=C/c1ccc2c(c1)OCO2	14
59	CN(C)CCN(C(=O)c1ccc2c(c1)OCCO2)c1nc2ccc(Cl)cc2s1	18
60	Cc1cc(-n2c(C)cc(C(=O)CSc3nc(N)cc(=O)[nH]3)c2C)no1	27
61	COC1=NS(=O)(=O)c2ccccc21	18
62	[O-]/[N+](=C\c1ccncc1)c1ccc(Br)cc1	20
63	COC(=O)/C(=C/c1ccc(F)cc1)NC(C)=O	17
64	Cc1cc(C)n2nc(C(=O)N(C)C(c3ccccc3)c3ccccc3)nc2n1	-5
65	COc1ccc(/C=C/C(=O)Nc2nc(N)n(-c3ccccc3)n2)cc1	11
66	COc1cccc(/C=N/Nc2nc3ccccc3[nH]2)c1O	4
67	COc1ccc(NC2=CC(c3ccc(OC)c(OC)c3)N(c3ccc(OC)cc3)C2=O)cc1 (configuration not stated)	21
68	Cc1ccccc1-n1c(SCC(=O)N(C)C2CCS(=O)(=O)C2)nc2ccccc2c1=O (configuration not stated)	17
69	CC(C)(C)NC(=O)COc1ccc(CNc2ncn[nH]2)cc1	1
70	CCc1ccc(NC(=S)Nc2ccc(S(=O)(=O)Nc3ncccn3)cc2)cc1	20
71	COc1ccccc1-n1c(-c2cc(-c3ccc(F)cc3)n[nH]2)n[nH]c1=S	7
72	CC(C)(C)C1CCC(C(=O)OCC(=O)N2CCN(C(=O)c3ccco3)CC2)CC1 (configuration not stated)	22
73	CCC(C)(C)NC(=O)Cn1c(-c2ccccc2)cc(C(C)=O)c1C	16
74	O=[N+]([O-])c1ccc(N2CCN(C(=S)c3cccc([N+](=O)[O-])c3)CC2)cc1	23
75	Cc1ccc(-n2ncc3c(SCc4ccccc4)ncnc32)cc1	7
76	Nc1ccc(OCCCc2c(N)nc(N)nc2N)cc1	15
77	CSc1ccc(/C=C(\NC(=O)c2ccc(C)cc2)C(=O)NN)cc1	11
78	Cc1ccc(C)n1CCN1CCN(C(=O)CC#N)CC1	18
79	COc1cc(CC(=O)OCC(=O)Nc2cccc([N+](=O)[O-])c2)cc(OC)c1OC	11
80	Cc1ccc[n+](CC(=O)Nc2nc3ccccc3s2)c1	-8
81	CCCCOC(=O)c1ccc(NC(=S)NC(=O)c2c(Br)c(C)nn2C)cc1	14
82	COc1cc(O)c(C(CC(=O)N2CCCC(C)C2)c2cc(OC)c(OC)c(OC)c2)c(OC)c1 (configuration not stated)	16
83	COc1cc(C2C(N3C(=O)c4ccccc4C3=O)C(=O)N2c2cccc(C)c2)cc(OC)c1OC (configuration not stated)	14
84	COc1ccc(S(=O)(=O)N(C(=O)c2ccco2)c2cc3sc(=O)oc3c3ccccc23)cc1	9
85	O=C(NCCN1CCCCC1)c1ccco1	22
86	Cc1cc(C(=O)OCC(=O)Nc2cc(S(=O)(=O)N(C)C)ccc2C)c2ccccc2n1	6
87	COc1ccc(CCNC(=O)C2CC(c3ccc(C(F)(F)F)cc3)=NO2)cc1 (configuration not stated)	18
88	CCCc1sc(N2CCCC(C(N)=O)C2)nc1-c1ccccc1 (configuration not stated)	11
89	Cc1cccc(NC(=O)c2cc(-c3ccccn3)nc3ccccc23)c1C	24
90	Cc1cc(C)cc(OCC(=O)NNC(=O)C2CCCO2)c1 (configuration not stated)	17
91	O=c1[nH]c2cc3c(cc2cc1CN(Cc1ccco1)C(=S)NCCCN1CCOCC1)OCCO3	7
92	CCOc1ccc(NC(=S)N(CCOC)C(C)c2ccco2)cc1 (configuration not stated)	13
93	COc1ccc(Br)cc1CN(C)CC(=O)Nc1cc(Cl)cc(Cl)c1	10
94	CCC(CC)c1nnc(NC(=O)c2cc([N+](=O)[O-])ccc2N2CCCCC2)s1	7
95	Cc1cc(-c2onc(C)c2C(=O)O)no1	16
96	CCN(CC(=O)NCc1cccs1)C(=O)c1cccc(S(=O)(=O)N2CCc3ccccc32)c1	22
97	Cc1cccc(C)c1NC(=O)N1C2CCC1CC(O)(c1cccnc1)C2 (configuration not stated)	26
98	CSc1ccc(CNc2nc3ccccc3n3cnnc23)cc1	30
99	Cc1ccc(NNC(=O)c2cc(C)on2)c(C)c1	4
100	Cn1nc(-c2ccc(S(N)(=O)=O)s2)cc1C(F)(F)F	18

Gathered by group, the entries above with a COOH group
nr	SMILES	Calb biofilm kill
20	Cc1ccc(NC(=O)CN2C(=O)N/C(=C/c3cccn3-c3ccc(C(=O)O)cc3)C2=O)cc1	9
46	C=CCc1cccc2cc(C(=O)Nc3ccccc3C(=O)O)c(=O)oc12	3
95	Cc1cc(-c2onc(C)c2C(=O)O)no1	16

(cont.)
nr	SMILES	Calb biofilm kill
101	CN(C)c1ccc(/C=N\NC(=O)c2ccc(Cn3cc(Cl)cn3)cc2)cc1	3
102	CCOc1ccc(S(=O)(=O)Nc2ccc3c(c2)c2c(n3S(=O)(=O)c3ccc(OCC)cc3)CCCC2=O)cc1	13
103	C=CCOC(=O)C1=C[C@@H](c2ccccc2)C[C@@H](OCc2ccc(CO)cc2)O1	7
104	Cc1ccc(/C=N/NC(=O)CC(=O)NCc2cccnc2)cc1	16
105	O=C(CN1CCC(Cc2ccccc2)CC1)NC(=O)NCc1ccccc1	12
106	COC(=O)CN1C(=O)N/C(=C/c2ccc(OC)c(C)c2OC)C1=O	18
107	Clc1cccc(Cl)c1CSc1nnc2ccccn12	14
108	Cn1nnnc1SCc1cccc2ccccc12	9
109	O=C(NC(NC(=S)Nc1c(Cl)cc(Cl)cc1Cl)C(Cl)(Cl)Cl)OCc1ccccc1 (configuration not stated)	1
110	C#CCNC(=O)C1=C[C@@H](c2cn(C(C)=O)c3ccccc23)C[C@@H](OCc2ccc(CO)cc2)O1	17
111	CC(=O)Nc1ccc(Nc2cc(C)nc3c(-c4ccccc4)c(C)nn23)cc1	-13
112	O=C(O)c1cc(NN=C2CCN(Cc3ccccc3)CC2)ccc1Cl	6
113	NC(=O)c1c(NC(=S)Nc2ccccc2)sc2c1CCCC2	12
114	CN1C[C@@H]2C(c3ccccc3)C3(c4ccc(C#N)cc4)CC2(C3)[C@H]1c1ccccc1 (some centres not stated)	16
115	N#C/C(=C\c1ccc(Cl)cc1)c1nc2ccccc2o1	13
116	CCN(CC)N=Nc1cccc(NC(C)=O)c1	6
117	COc1cccc(C(C(=O)NC2CCCCC2)N(C(=O)c2ccco2)c2ccc(-n3cnnn3)c(C)c2)c1 (configuration not stated)	8
118	CC(C)(C)C1CCC(=NNC(=S)NCc2ccccc2)CC1 (configuration not stated)	18
119	COc1cc(C(C)=O)ccc1COc1ccc(C(=O)OCC(N)=O)cc1OC	17
120	O=c1cc(-c2ccccc2)nc(SCc2ccccc2F)[nH]1	9
121	CCCOC(=O)c1cc(-c2ccc(C=O)o2)ccc1Cl	7
122	COC1(NC(=O)c2ccccc2)C(C)=CC(=O)C=C1C	12
123	COc1ccc(CCNC(=O)CSc2nc3[nH]ncc3c(=O)n2-c2ccc(Br)cc2)cc1OC	14
124	Cc1ccc(S(=O)(=O)Nc2ccc(N3CCOCC3)cc2)cc1[N+](=O)[O-]	24
125	Cc1cccc(NC(=O)C2(c3cccs3)CCOCC2)c1	7
126	COc1ccccc1NC(=O)COc1ccccc1C(=O)c1cnn(-c2ccccc2)c1	18
127	COc1cc(/C=C/C(=O)OCc2c(C)noc2C)ccc1OC(F)F	9
128	CN(Cc1ccno1)Cc1cn(C)nc1-c1ccc(Oc2ccccc2)cc1	10
129	Cc1cccc(CCNC(=O)CC2C(=O)NCCN2CC2CCCCC2)n1 (configuration not stated)	14
130	Cn1/c(=N/NC(=O)c2ccccc2Br)sc2ccccc21	17
131	CCOC(=O)C1=C(C)NC(=O)NC1c1ccc([N+](=O)[O-])o1 (configuration not stated)	17
132	O=C(Nc1cc(S(=O)(=O)Nc2ccc(Cl)cc2)ccc1N1CCCCC1)c1ccc(F)cc1	7

A portion of the library, so the mix of outcomes need not match the whole.
